# Assay outcomes as filed in PubChem BioAssay.
# fixLJ activator: activators of Burkholderia fixLJ two-component system; B. multivorans fixK-promoter GFP reporter, 18 h; hits give high values; z-score (concentration not given with the values); 29,000 compounds, 0.3% hits;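 active means replicate mean overnight rise in green fluorescent reporter signal, 3 or more SD over negative controls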;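 further: score is relative to vehicle wells of the plate; 300 nL library stock went into each well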
# An asterisk follows results filed as active; & = joins results of further samples. This is a subset (hit frequency here may not be typical).
SMILES,fixLJ activator
CCOC(=O)c1oc2ccc(S(=O)(=O)n3nc(-c4ccccc4OC)cc3N)cc2c1C,-0.89
COc1ccc(OC)c(NC(=O)c2ccc3c(Cl)c4c(nc3c2)CCCC4)c1,0.64
COc1ccc(NC(=O)Cn2c(=O)n(-c3ccc(OC)c(OC)c3)c(=O)c3ccccc32)cc1,-0.81
Cc1ccc(CNC(=O)c2nnn(Cc3ccc(F)cc3)c2N)cc1,-0.74
COc1ccc(C2NC(=O)c3c(sc4c3CCN(C)C4)N2)cc1O (stereo not drawn),-8.4
CCc1cccc(NC(=O)COC(=O)c2cn(CC)c3nc(C)ccc3c2=O)c1,0.46
CCOc1ccc2cc(-c3nnc(Nc4ccccc4F)s3)c(=O)oc2c1,0.27
CCOc1ccc(NC(=O)C2CCCN(S(=O)(=O)c3ccc(Br)s3)C2)cc1 (stereo not drawn),-0.98
COc1ccccc1Nc1nc(N)nc(N)c1S(=O)(=O)c1ccccc1,-1.8
Cc1ccc(CSc2nnc(CCNC(=O)OC(C)(C)C)o2)cc1,-0.72
COc1ccc(-n2c(/C=C/c3c(C)[nH]c4ccccc34)nc3ccccc3c2=O)cc1,-0.59
CCOc1ccc(NC(=O)CSc2oc(-c3ccc(F)cc3)nc2S(=O)(=O)c2ccc(C)cc2)cc1,-0.05
O=C(NCCc1ccc(Cl)cc1)c1ccc2c(c1)N(Cc1ccccc1F)C(=O)c1ccccc1S2(=O)=O,0.13
Cc1ccc(C(F)(F)F)cc1C(=O)NCc1n[nH]c(=O)[nH]1,0
Cc1cc2oc(=O)c(CC(=O)O)c(C)c2c2occ(-c3ccc(F)cc3)c12,-1.4
CCC(=O)N1CCc2cc(Br)cc(S(=O)(=O)CCC(=O)NCc3ccc(Cl)cc3)c21,-1.3
Oc1c(Cl)cc(Cl)c(Cl)c1Cc1c(O)c(Cl)cc(Cl)c1Cl,-3.9
Cc1ccc(Cl)cc1N(C)C(=O)c1cn(C2CCCCC2)c(=O)c2c1c1ccccc1n2C,-1.5
Nc1nc(CCCNC(=O)N2CCCN(c3ncccn3)CC2)cs1,0.38
Cc1ccc(C)c(N2CCN(C(=O)c3ccc4c(=O)n(CCc5ccccc5)c(=O)[nH]c4c3)CC2)c1,-0.12
CCN(CC)CCCNC(=O)c1nn(-c2ccc(OC)c(Cl)c2)c(=O)c2c1c1ccccc1n2C,-0.99
COC(=O)c1ccc(OC)c(Cn2c(=O)n(-c3cccc(Cl)c3)c(=O)c3c4c(sc32)CN(C(C)=O)CC4)c1,-0.9
CC(=O)N1CCc2c(nc(-c3cccnc3)nc2NCCc2cnc[nH]2)C1,-0.28
O=C(NCCSc1ncn[nH]1)[C@@]12CCC(N3CCOCC3)C[C@H]1CCNC2 (stereo partly drawn),-0.98
CCC(C(=O)N1CCC(Cc2nn(C)c(=O)n2CC)CC1)n1cccn1 (stereo not drawn),-0.06
CC[C@H](C)C(=O)O[C@H]1C[C@@H](C)C=C2C=C[C@H](C)[C@H](CC[C@@H]3C[C@@H](O)CC(=O)O3)[C@H]21,-1.9&1.8
COc1cc(C(=O)Oc2c(Sc3ccccc3)c(C)nn2-c2ccccc2)cc(OC)c1OC,0.15
Cc1cc(N2CCC(C(=O)Nc3ccccc3Cl)CC2)n2nc(C)c(-c3ccc(Cl)cc3)c2n1,-0.93
O=C(CSc1cn(CCNC(=O)c2ccccc2F)c2ccccc12)Nc1ccc2c(c1)OCCO2,-0.07
Nc1nnc(-c2cccc(Cl)c2Cl)c(N)n1,-1.7&-0.53
COc1ccc(C(=O)c2cn(Cc3ccccc3F)c3ccc(F)cc3c2=O)cc1,-0.65
Cc1ccc(CNC(=O)C2CCN(C(=O)c3cnn(-c4ccccc4)c3-n3cccc3)CC2)cc1,-2.1
CC(C)c1noc(C2CCC(=O)N(CCCN3CCOCC3)C2)n1 (stereo not drawn),-2.1
COc1ccc(OC(=O)c2nc(SCc3ccc(F)cc3)ncc2Cl)cc1,1.1
CCc1nn(CCCC(=O)NC(C)c2ccccc2)c(=O)c2cc3occc3n12 (stereo not drawn),-1.2
COc1ccc(CCN2C(=O)NC(NC(=O)c3ccccc3OC)(C(F)(F)F)C2=O)cc1OC (stereo not drawn),-1.1
CSCCC(O)C(=O)NCc1cc(-c2ccc(F)cc2)no1 (stereo not drawn),-0.58
CCc1ccc(CN(C)C(=O)NCc2cccc(OC)c2OC)nc1,-1.1
Cc1ccc(CNCc2c(C(=O)O)c(C)n(Cc3ccc(C)cc3)c2C)cc1,-2.7
CCOc1ccc(CCNC(=O)c2cn(C)c3ccc(S(=O)(=O)N4CCOCC4)cc3c2=O)cc1OCC,-0.93
CCCOc1ccc(C2c3c(-c4ccccc4O)n[nH]c3C(=O)N2CCCOCC)cc1OCC (stereo not drawn),0.82
CCc1ccc(-n2c(=O)c3c4c(sc3n(CC(=O)c3ccc(Br)cc3)c2=O)CCC4)cc1,-1.6
CCOc1ccc(CNC(=O)CSc2cc(=O)n(CC)c3ccccc23)cc1,-0.89
COc1cccc(C(=O)Nc2cc(-c3ccccc3)no2)c1,-2.6
CCCN(Cc1ccsc1)S(=O)(=O)c1ccc(-c2ccno2)o1,-0.63
CN1C(=O)CC(C(=O)O)C12CCN(Cc1ccccc1Cl)CC2 (stereo not drawn),-1.4
COc1cc(NC(=O)c2nc3ccccc3nc2N2CCCCC2)cc(OC)c1OC,-1.9
CCOc1cccc(CNCCNC(=O)c2nonc2N)c1,-3.2

# Among those listed so far, these have an aryl thioether with sulfur outside any ring:
SMILES,fixLJ activator
Cc1ccc(CSc2nnc(CCNC(=O)OC(C)(C)C)o2)cc1,-0.72
CCOc1ccc(NC(=O)CSc2oc(-c3ccc(F)cc3)nc2S(=O)(=O)c2ccc(C)cc2)cc1,-0.05
O=C(NCCSc1ncn[nH]1)[C@@]12CCC(N3CCOCC3)C[C@H]1CCNC2 (stereo partly drawn),-0.98
COc1cc(C(=O)Oc2c(Sc3ccccc3)c(C)nn2-c2ccccc2)cc(OC)c1OC,0.15
O=C(CSc1cn(CCNC(=O)c2ccccc2F)c2ccccc12)Nc1ccc2c(c1)OCCO2,-0.07
COc1ccc(OC(=O)c2nc(SCc3ccc(F)cc3)ncc2Cl)cc1,1.1
CCOc1ccc(CNC(=O)CSc2cc(=O)n(CC)c3ccccc23)cc1,-0.89

# (more compounds)
SMILES,fixLJ activator
Cc1cc(C)cc(N2C(=O)CC(c3ccc(C(F)(F)F)cc3)C3=C2COC3=O)c1 (stereo not drawn),-2.3
COCC1CCCN(S(=O)(=O)NCc2cnc(-c3ccccc3OC)s2)C1 (stereo not drawn),-0.8
CC(C)n1cnnc1CN1CCC2(CCC(=O)N(C3CCCC3)C2)CC1,-0.22
COc1ccc(OCC(=O)N2CCN(Cc3cccc(OC)c3OC)CC2)cc1,0.71
CCOC(=O)c1c(C)c(-c2ccccc2)n(CC(=O)Nc2ccc(OCC)cc2)c1C,-1.4
Cc1ccc(NC(=O)CCNS(=O)(=O)c2cccs2)cc1F,-1.3
CCOC(=O)c1[nH]c2ccccc2c1NC(=O)c1ccc(OC)c(OC)c1,0.69
CCCCCn1c(-c2ccc(OC)c(OC)c2)nc2ccccc21,-0.43
CC(C)c1ccc(NC(=O)c2ccc3oc(=O)c(S(=O)(=O)c4ccc(F)cc4)cc3c2)cc1,-0.92
Cc1ccccc1NC(=O)CSCn1nnc2c(=O)[nH]c(Cc3ccc(F)cc3)nc21,-1.8
CCCOc1ccc(C(=O)Nc2ccc(-c3cc4ccccc4oc3=O)c(C)c2)cc1,1.5
CCN(C(=O)c1cc2c(s1)-c1ccccc1OC2)c1cc(Cl)ccc1OC,-0.7
COc1cc(OC)c(NC(=O)C(NS(=O)(=O)c2cccc3nsnc23)c2ccccc2)cc1Cl (stereo not drawn),-0.78
CCc1nn(CC(=O)NCCCN2CCN(CC)CC2)c(=O)c2cc3occc3n12,0.27
CC(C)CC(=O)C1CCCN(C(=O)c2ccc(N3CCC(O)CC3)nc2)C1 (stereo not drawn),0.49
Cc1n[nH]c(C)c1Cc1n[nH]c(=O)n1C(C)c1ccc(F)cc1 (stereo not drawn),-0.12
CC(=O)c1cc(-c2nc(Cn3cncn3)nn2C2CCCCC2)n[nH]1,-1.1
O=C(Cc1ccc(F)cc1)N1CCCC(c2nccn2Cc2cscn2)C1 (stereo not drawn),-0.16
COc1ccc(Cc2nc3c4cnn(-c5cccc(F)c5)c4ncn3n2)cc1,-1.6
CCCSc1ncc(Cl)c(C(=O)Nc2ccc(S(=O)(=O)Nc3ncccn3)cc2)n1,0.15
CC(=O)N1CCOC(CNC(=O)c2ccn(C(F)F)n2)C1 (stereo not drawn),-1.5
Cc1ncc(C(=O)N(C)CCc2scnc2C)c(-c2ccccc2)n1,-0.13
COc1ccc(OCCCN)c(C(=O)N2CCN(C(C)C)C(C)C2)c1 (stereo not drawn),1.1
CCOc1ccccc1CNc1nc2nc(C)c(CC(=O)OC)c(=O)n2[nH]1,-1.3

# Not a retest: 3 of the compounds above.
SMILES,fixLJ activator
COc1cc(OC)c(NC(=O)C(NS(=O)(=O)c2cccc3nsnc23)c2ccccc2)cc1Cl (stereo not drawn),-0.78
CCc1nn(CC(=O)NCCCN2CCN(CC)CC2)c(=O)c2cc3occc3n12,0.27
CC(C)CC(=O)C1CCCN(C(=O)c2ccc(N3CCC(O)CC3)nc2)C1 (stereo not drawn),0.49

# Retrieved by structure from above, two records:
SMILES,fixLJ activator
CCOc1ccc(NC(=O)C2CCCN(S(=O)(=O)c3ccc(Br)s3)C2)cc1 (stereo not drawn),-0.98
CC(C)n1cnnc1CN1CCC2(CCC(=O)N(C3CCCC3)C2)CC1,-0.22

# Carrying on.
SMILES,fixLJ activator
COc1ccc(CNC(=O)c2cc3c(s2)-c2ccccc2OC3)cc1,0.73
O=C(NC(c1ccc2c(c1)CCO2)C1CC(O)C1)c1cnc[nH]1 (stereo not drawn),-0.31
CCn1c2ccccc2c2cc(CN3CCN(Cc4ccccc4Cl)CC3)ccc21,0.78
c1ccc(CNc2ncc(CN3CCCC(c4ccn[nH]4)C3)cn2)cc1 (stereo not drawn),-1.1
COc1ccc(-c2cn3c(n2)sc2cc(C(=O)Nc4ccc(F)cc4Cl)ccc23)cc1,-0.99
CCC(=O)Nc1cc(-c2nc3ccccc3s2)c(Cl)cc1Cl,-1.1
CCN(CC)S(=O)(=O)c1ccc2c(c1)N(CC(=O)NCc1ccc(F)cc1)C(=O)CO2,-0.47
CCOc1ccccc1NC(=O)c1c(NC(=O)Cc2ccccc2)sc2c1CCCC2,0.04
CN1[C@@H]2CC[C@H]1CC(OC(=O)c1c[nH]c3ccccc13)C2 (stereo partly drawn),-1.8
O=C(Nc1ccc(Cl)cc1)N1CCN(c2ccc3nnc(-c4ccc(F)cc4)n3n2)CC1,-0.68
CCCc1nc(C)c(CNC(=O)NCCNS(C)(=O)=O)s1,-0.22
CC(C)CC(=O)N1CCCC2(CCC(=O)N(CCc3ccccn3)C2)C1 (stereo not drawn),0.58
COC(=O)CNC(c1ccccc1)c1cc(Br)ccc1NC(=O)c1cc(OC)c(OC)c(OC)c1 (stereo not drawn),0.41
COc1cccc2cc(-c3nc(-c4cccs4)no3)c(=O)oc12,1.5
Cc1ccc(C)c(N2CCN(c3cc(C)nc4c(-c5ccc(Cl)cc5)c(C)nn34)CC2)c1,0.57
Cc1cc2nc(C(=O)N3CCOC(C(=O)N(C)C)C3)cc(C)n2n1 (stereo not drawn),0.1
N#Cc1c(-n2ncnc2-c2ccc(F)cc2)sc2c1CCCCC2,0.18
COc1ccc(Cl)cc1NC(=O)Cn1c(=O)n(Cc2ccc(F)cc2)c(=O)c2cccnc21,-1.7
Cc1cc(C)c2nonc2c1S(=O)(=O)NC(C)CN1CCc2ccccc2C1 (stereo not drawn),-0.02
CCN1Cc2nc(OC)c(CNC(=O)CN3CCCC(O)C3)cc2C1=O (stereo not drawn),-0.12
Cc1ccc2c(c1)c(CNC(=O)C1CC3CCN1CC3)nn2C (stereo not drawn),1.1
COc1ccc(NC(=O)c2nc(S(=O)(=O)Cc3ccc(C)cc3)ncc2Cl)cc1,-1.1
COc1ccccc1CN1CC(C(=O)N(C)Cc2nc(-c3ccccn3)no2)CC1=O (stereo not drawn),0.42
CN(Cc1cc(-c2ccccn2)no1)c1nc2ccccc2s1,0.37
C=C(C)CSc1nc2sc3c(c2c(=O)n1-c1ccccc1)CCC(C)C3 (stereo not drawn),0.02
CCC(=O)Nc1cc(Cl)ccc1C(=O)NCCc1nnc(N)s1,-0.42
CC(C)(CN1CCOC2(CCN(Cc3cn[nH]c3C(=O)O)C2)C1)N1CCCCC1 (stereo not drawn),-1.2
CCn1cc(C(=O)N2CCCC(c3nccn3Cc3cscn3)C2)c(C)n1 (stereo not drawn),1.3
O=C(Cn1c(=O)n(-c2ccccc2)c(=O)c2ccc(C(=O)NCc3ccc4c(c3)OCO4)cc21)Nc1ccc(Br)cc1F,1.1
CC(=O)Nc1ccc(Nc2nnc(-c3ccc(C)c(S(N)(=O)=O)c3)c3ccccc23)cc1,-0.54
Cc1cc(C)c2c(c1)NC(=O)C2(O)c1c[nH]c2ccccc12 (stereo not drawn),0.21
COc1cc(C(c2c(O)c3ccccc3oc2=O)c2c(C)n(C)n(-c3ccccc3)c2=O)ccc1O (stereo not drawn),-0.15
Cc1ccc(-n2c(=O)c3c(c4cc(C)ccc4n3C)n(CC(=O)NCc3ccccc3Cl)c2=O)cc1,-0.7
Cc1ccccc1Cn1c(=O)n(-c2ccc(Cl)cc2)c(=O)c2c3c(sc21)CCCC3,-1.5
CCOC(=O)c1[nH]c2ccccc2c1NC(=O)c1ccc(OC(C)C)cc1,-0.57
Cc1cccc(SC2CCN(Cc3ncccc3C(=O)O)CC2)c1,-0.66
N#Cc1cccc(NC(=O)Cn2nc(Cc3ccncc3)c3ccccc3c2=O)c1,-1.1
COc1cccc(C2CC(=O)Nc3c2c(=O)[nH]c2ncnn32)c1OC (stereo not drawn),-2.5
COC(=O)c1c(NC(=O)/C=C/c2ccc(OC)c(OC)c2)sc2c1CCC2,-0.13
COc1ccc(C(NC(=O)Cc2ccccc2C)C2CC(O)C2)cn1 (stereo not drawn),0.02
Cc1cnc(C)c(N2CCN(CCC3COCCO3)CC2)n1 (stereo not drawn),-0.68
